# VACV Venus inh – inhibitors of vaccinia virus (Venus reporter). AID 720580. actives 0.46% (n = 330,000). Potency, µM (top dose mostly 36.5 µM), without a hit: top-dose activity change, negative = inhibition, actives largely listed as inhibitors. Vaccinia virus Venus reporter expression, fluorescence; active means well fitted inhibition curve with a large enough effect; inconclusive means small, poorly fitted or top-dose-only effect; inactive means no such curve, though single readings can be large or run the other way; tested in A549 cells; also: nearly all actives have a fitted effect of over 30% in size; inactives centre near -10
# Vaccinia mCherry – vaccinia inhibition (mCherry reporter). Vaccinia virus mCherry reporter infection, fluorescence; about a quarter of the inactives have no number. Potency, µM (top dose mostly 36.5 µM), without a hit: top-dose activity change, negative = inhibition, most hits filed as inhibitors. actives 0.63% (n = 310,000); active = well fitted inhibition curve with a large enough effect; inconclusive = small, poorly fitted or top-dose-only effect; inactive = no such curve, though single readings can be large or run the other way; tested in A549 cells; also: nearly all actives have a fitted effect of over 35% in size; inactives centre near -10
# The depositor's hits bear a star; i = inactive; ? = inconclusive; . = not tested or not shown; & = joins results of further samples; [ ] = dose if it differs, or a comment. % is scaled to controls: 0 for no effect and ±100 for the full control effect; potency is read from the fitted curve at half-maximal effect.
SMILES,VACV Venus inh,Vaccinia mCherry
O=c1[nH]c(N2CCCCC2)nc2c1CCCC2,-4%,-15%
CC(=O)Nc1cccc(-c2ccnc3c2CC(C(=O)NCc2ccc(F)c(F)c2)O3)c1 (configuration not stated),-15%,3%
COc1ccccc1N1C(=O)c2cccc3c(Cl)ccc(c23)C1=O,-6%,-7%
CCOC(=O)c1sc2nccc(OC)c2c1N=CNOC,-8%,-8%
CCOC(=O)C1CCC(CN(Cc2c(Cl)cccc2Cl)S(=O)(=O)c2ccc(F)c(C)c2)CC1 (configuration not stated),-4%,-3%
COc1ccc(-c2noc(-c3ccc(N4CCC(C)CC4)c([N+](=O)[O-])c3)n2)cc1OC,-7%,-3%
CNc1nc(Oc2cccc(F)c2)c2sccc2n1,0%,29%
Cc1ccc(C)c(N2CCN(CCCNC(=O)Cn3ncc4c5ccccc5n(C)c4c3=O)CC2)c1,-25%,-27%
Cc1ccc(C)c(N2CCN(C(=O)c3cc4c(=O)n(Cc5ccccc5)ccc4nc3C)CC2)c1,?,?
C[C@@H]1CN([C@@H](C)CO)C(=O)CCCn2nncc2CO[C@@H]1CN(C)S(=O)(=O)c1ccccc1F,-8%,i
CCCc1cc(=O)oc2c3c(c4c(c12)OC(C)(C)C=C4)OC(C)C(C)C3O (configuration not stated),?,11µM*
O=C(OC1CCCCC1)c1ccc(NC(=O)c2ccco2)cc1,?,.
Cc1ccc(S(=O)(=O)N2[C@@H](c3ccc(Cl)c(Cl)c3)C(C(=O)O)=C[C@H]2C(C)(C)C)cc1,-7%,i
Cn1ncc(Cl)c1C(=O)Nc1ccc(CN2CCCCC2)cc1,-7%,i
Cn1cc(Cl)c(C(=O)Nc2nc3ccc([N+](=O)[O-])cc3s2)n1,-5%,-19%
Cc1cc(C)n2c(=O)c3ccc(Cl)cc3nc2c1C#N,4%,-6%
CN(C(=O)c1ccno1)c1nnc(-c2cnccn2)s1,-7%,-18%
CSCCNC(=O)c1ccc2nc(C3CCCCC3)oc2c1,1%,i
Cc1ccc2c(CN3CCN(S(=O)(=O)c4ccc5c(c4)OCCO5)CC3)cc(=O)oc2c1C,0%,-10%
CCSc1nnc(NC(=O)CSc2nnc(CNC(=O)c3cc(OC)c(OC)c(OC)c3)o2)s1,-21%,-20%
O=C1CSC(c2cccc([N+](=O)[O-])c2)N1c1ccccc1F (configuration not stated),-12%,-3%
COc1ccc(CC(=O)NNC(=S)NC(=O)c2cc(OC)c(OC)c(OC)c2)cc1,-26%,-24%
COc1ccc(NC(=O)c2ccc3nc(-c4ccccc4)c(-c4ccccc4)nc3c2)c(OC)c1,-10%,-12%
C[C@H]1CN([C@@H](C)CO)C(=O)CCCn2cc(nn2)CO[C@@H]1CN(C)S(=O)(=O)c1ccc(-n2cccn2)cc1,-16%,-2%
NC(=O)c1cc(S(=O)(=O)NCc2ccc(Br)cc2)cs1,-13%&-5%,?
COc1cc(OC)c(NC(=O)CSC2=Nc3ccccc3N=C(c3ccc(F)cc3)C2)cc1Cl,-10%,-7%
COc1ccc(C(c2nnnn2CC2CCCO2)N2CCN(c3ccccc3)CC2)cc1 (configuration not stated),10%,.
Cc1cc(=O)oc(C)c1C(=O)Nc1ccc2nsnc2c1,?,.
CN(C)CCNc1nc(-c2ccccc2)nnc1C(F)(F)F,-13%,.
O=C(NN1C(=O)C2C3c4ccccc4C(c4ccccc43)[C@@H]2C1=O)c1ccccc1 (some centres not stated),-16%,-20%
CC(C)(C)NC(=O)C(c1ccco1)N(C(=O)Cn1nnc(-c2ccc(F)cc2)n1)c1cccc(F)c1 (configuration not stated),-12%,i
Cc1cc2ccccn2c1C(=O)Nc1ccccc1,-7%,-18%
C=CCN1C=CC(=O)CC1,-12%,-19%
Oc1cccc2ccc[n+](CC(O)CBr)c12 (configuration not stated),-4%,16%
Cc1ccc(NCc2nc3ccccc3n2CCOc2ccccc2C)cc1,?,-24%
Cc1cc(C)cc(OCC(=O)Nc2cccc(-c3nc4ccccc4[nH]3)c2)c1,-11%,-12%
CC1=C(C(=O)Nc2cc(Cl)ccc2C)C(c2ccco2)n2ncnc2N1 (configuration not stated),-8%,-9%
CCN(CC)C(=O)COc1ccc(-c2ccccc2)cc1,-14%,.
Cc1ccc(NC(=O)c2cnn3c2NC(=C2CC2)C=C3C(F)F)cc1,-9%,-11%
C=CSc1sc(Cl)c(N(CC)CC)c1[N+](=O)[O-],-4%,2%
COc1cc(NC(=O)Nc2nc(C(N)CCc3ccccc3)cs2)cc(OC)c1OC (configuration not stated),?,?
CC(C)c1ccc(NC(=S)N(C)CCc2ccccn2)cc1,-16%,-17%
CCOC(=O)N1CCN(c2ccnc3cc(Cl)ccc23)CC1,-7%,-5%
O=C(O)CCN1C(=O)C2C3CC(C2C1=O)C1C(c2ccccc2)c2sc(=O)n(-c4ccccc4)c2SC31 (configuration not stated),-2%,i
COc1ccc(OCC(=O)OC2CCCN(C)C2)cc1 (configuration not stated),-5%,i
FC(F)(F)c1nnc(Nc2ccc(Cl)cc2)s1,-13%[7.34 µM],i[7.34 µM]
CNC(=O)c1ccsc1NC(=O)C1CCN(S(=O)(=O)c2ccc(Cl)s2)CC1,?,-12%
CCc1nc2ccccc2n1Cc1cc(=O)n2cc(C)ccc2n1,-18%,i
Cc1nnc(NC(=O)c2ccc(S(=O)(=O)N3CCCCC3C)cc2)o1 (configuration not stated),-17%,-21%
CCOc1cc(CNC(=O)c2ccccc2NC(=O)c2nsc3ccccc23)ccc1OC,-25%,-12%
CCOc1ccc(CCNC(=O)C2=C(C)C(=O)OC23CCCCC3)cc1,-10%,-17%
Cc1ccc(S(=O)(=O)N(CC(=O)NCC2CCCO2)Cc2cccc(C)c2)cc1 (configuration not stated),-7%,i
O=C(Oc1nsnc1N1CCOCC1)c1ccccc1,-1%,-12%
O=C(Cn1ccc2ccccc2c1=O)NCC(=O)N1CCN(c2ccc(F)cc2)CC1,-17%,-28%
COc1ccc(OC)c(-c2ccnc(-n3ncc(C(=O)N(C)CCc4ccccn4)c3C)n2)c1,-4%,-15%
COc1cc(/C=C2\SC(N)=NC2=O)ccc1OCC(=O)Nc1ccc(C)cc1,2%,i
Cc1ccc(OCC(=O)Nc2ccc(OCc3cc(=O)n4c(C)csc4n3)cc2)cc1C,-4%,-11%
Nc1ccnn1-c1ccccc1,-4%,i
CC(=O)c1ccc(OCc2cc(C(=O)N3CC4C[C@@H]5CC3C[C@H](C4)C5)no2)cc1,-24%,-29%
Cc1nc2ccccc2c2c(N)c3ccccc3n12,-3%,4%

# Later entries.
SMILES,VACV Venus inh,Vaccinia mCherry
CC(=O)c1ccc(OCC(=O)c2cc(C)n(-c3ccc4c(c3)OCO4)c2C)cc1,-15%,-23%
O=C(NCCN1CCOCC1)c1ccccc1Oc1ccccc1,3%,-14%
CN(C)S(=O)(=O)N1CCN(c2ccc([N+](=O)[O-])c(N3CCOCC3)c2)CC1,-16%,-1%
COc1ccccc1C(=O)NCCn1cc(SCc2ccc(C)cc2)c2ccccc21,-6%,-18%
C/C(=N/NC(=O)C1CCN(S(=O)(=O)c2ccc(C)cc2)CC1)c1cccc([N+](=O)[O-])c1,-4%,-10%
CCn1c(CCCNC(=O)c2ccc(F)cc2)nc2ccccc21,-10%,-14%
CCc1ccc(NC(=O)c2nc3nc(C)cc(C(F)F)n3n2)cc1,-1%,0%
O=C(CNC(=O)c1cccc(Cl)c1)NCCCSc1ccccc1,-8%,-5%
CC(C)(C)n1ncc2c(=O)n(CC(=O)NCc3ccco3)cnc21,?,-24%
O=C(NN=C1C2CC3CC(C2)CC1C3)c1cc(Cl)ccc1O,-10%,.
Cc1ccc(S(=O)(=O)N(CC(=O)NCCSc2ccc(Cl)cc2)c2cccc(Cl)c2)cc1,-20%,-29%
O=CNc1cc(-c2ccccc2Oc2ccccc2)cn2c(-c3ccc(F)cc3)cnc12,-12%,3%
COc1ccccc1CNC(=O)c1cnc(N(C)C)nc1,-9%,-14%
CCOc1ccccc1N1CC(C(=O)N2CCOCC2)CC1=O (configuration not stated),3%,-9%
COc1cccc(C(=O)Nc2ccc(C(F)(F)F)n(C)c2=O)c1,-9%,-4%
O=C(COC(=O)CNC(=O)c1ccccc1F)Nc1cccc(S(=O)(=O)N2CCCCCC2)c1,-8%,i
CC(C)(C)NC(=O)C(c1cccs1)N(Cc1cccs1)C(=O)c1ccc(CN2CCOCC2)o1 (configuration not stated),-10%,i
CC1=CSC2=NC(=O)/C(=C/c3cccc(OC(=O)c4ccco4)c3)C(=N)N12,-3%,-11%
O=C(Cn1cc(SCc2ccccc2)c2ccccc21)N1CCCCCC1,-18%,-15%
COc1ccc(CSc2nc3ncccc3[nH]2)cc1,-10%,-11%

# Pulled by structure from above:
SMILES,VACV Venus inh,Vaccinia mCherry
O=C(Cn1cc(SCc2ccccc2)c2ccccc21)N1CCCCCC1,-18%,-15%
CN(C)S(=O)(=O)N1CCN(c2ccc([N+](=O)[O-])c(N3CCOCC3)c2)CC1,-16%,-1%

# The listing continues.
SMILES,VACV Venus inh,Vaccinia mCherry
COc1ccc(N2CCCn3c2nc2c3c(=O)n(CCN3CCOCC3)c(=O)n2C)cc1,-4%,.
C=CCOc1c(CNc2cccc(C(=O)O)c2)cccc1OCC,-4%,-15%
Cn1c(=O)c(C(=O)N2CCc3ccccc32)cc2cccnc21,3%,-4%
CSc1nc2ccccc2cc1/C=C(\C#N)c1ccccc1,?,.
CCOC(=O)C1(C)CCN1C(=O)c1ccc(-c2ccccc2)cc1 (configuration not stated),-5%,31%[activator]
CC(C)(C)OC(=O)C[C@@H]1C/C=C\C[C@H](CC(=O)N(CCO)Cc2ccccc2)C(=O)N2CCC[C@H]2COC1=O,-12%,-10%
O=C1CC(N2CCC(Cc3ccccc3)CC2)C(=O)N1CCc1ccccc1 (configuration not stated),-19%,-29%
Cc1ccc(Cn2c(=O)n(CCCC(=O)NCc3ccccc3Cl)c(=O)c3ccccc32)cc1,-15%,-3%
O=C(NCc1ccc(F)cc1)C1CCN(S(=O)(=O)c2cccc3nonc23)CC1,-4%,i
OC(c1cccc(Cl)c1)c1ncc(-c2cccc(C(F)(F)F)c2)[nH]1 (configuration not stated),-19%,-6%
CCc1nc2sc3ccccc3c(=O)c2c(=O)n1Cc1ccco1,13%,17%
O=S(=O)(NCCC1=CCCCC1)c1ccc(OC(F)(F)F)cc1,-6%,i
Cc1ccc2nc(-c3ccc(C#N)cc3)c(Cc3ccccc3C(F)(F)F)n2c1,-2%,i
CCOc1ccc(NC(=O)/C=C/c2ccc(OC)cc2)c([N+](=O)[O-])c1,-15%,-24%
O=C(O)COc1ccccc1/C=C1\SC(=S)N(NC(=O)c2ccccc2O)C1=O,16%,-18%
CCc1cccc(NS(=O)(=O)c2ccc3c(c2)oc(=O)n3C)c1,-17%,-13%
CCC(C)Sc1oc(-c2ccco2)nc1S(=O)(=O)c1ccc(Cl)cc1 (configuration not stated),-14%,-11%
CCOCCc1nnc(NC(=O)CN2C(=O)c3ccccc3C2=O)s1,-8%,-3%
CCN(C[C@H]1N[C@@](Cc2ccccc2)(C(=O)OC)[C@H]2C(=O)N(Cc3ccccc3)C(=O)[C@@H]12)C(=O)NC(C)C,-6%,i
COc1ccccc1NC(=O)CN(Cc1ccco1)C(=O)c1ccc(=O)[nH]c1,3%,i

# The last two compounds of the part before are carried over, then new ones follow:
SMILES,VACV Venus inh,Vaccinia mCherry
CCN(C[C@H]1N[C@@](Cc2ccccc2)(C(=O)OC)[C@H]2C(=O)N(Cc3ccccc3)C(=O)[C@@H]12)C(=O)NC(C)C,-6%,i
COc1ccccc1NC(=O)CN(Cc1ccco1)C(=O)c1ccc(=O)[nH]c1,3%,i
O=S(=O)(NCC1CCCO1)c1ccc(Br)s1 (configuration not stated),-3%,-9%
NC(=O)NCc1cccs1,1%,i
CCOc1ccc(C(=O)CN2CCN(S(=O)(=O)c3ccc(OC)cc3)CC2)cc1,-28%,.
Cc1ccc(-n2cc[nH]c2=S)c(C)c1,10%,0%
Cc1cc(=O)oc2cc(NC(=O)c3ccnn3C)ccc12,8%,i
CC(=O)c1cccc(NC(=O)c2c(C)nn(-c3ccc(F)cc3)c2-n2cccc2)c1,-1%,-12%
CC1CCN(C(=O)c2[nH]cnc2C(=O)NCC(=O)OCc2ccccc2)CC1,0%,-24%
CCC(=O)c1ccc(OCC(=O)O)cc1,1%,i
COc1ccc(C(=O)OCc2cc(=O)n3ccsc3n2)cc1F,-9%,-8%
COc1cc(NC(=O)C2CCCO2)c(OC)cc1NC(=O)c1ccccc1 (configuration not stated),13%,.
COc1ccc(-c2nnc(SCC(=O)Nc3ccc(C)c(C)c3)s2)cc1,15%,0%
Cc1ccc(NS(=O)(=O)c2cccc(C(=O)N3CCCCC3)c2)cc1,-9%,i
COC(=O)c1ccc(CSc2nnc(Nc3cccc(OC)c3)s2)o1,-9%,-21%
CCOC(=O)c1cc2c(=O)n3cccc(C)c3nc2n(Cc2ccco2)c1=NC(=O)c1cccnc1,-18%,-15%
CCc1nc2ccccc2c(C(=O)OCc2nc3ccccc3c(=O)[nH]2)c1C,-27%,i

# In the list so far, five have a tert-butyl group:
SMILES,VACV Venus inh,Vaccinia mCherry
Cc1ccc(S(=O)(=O)N2[C@@H](c3ccc(Cl)c(Cl)c3)C(C(=O)O)=C[C@H]2C(C)(C)C)cc1,-7%,i
CC(C)(C)NC(=O)C(c1ccco1)N(C(=O)Cn1nnc(-c2ccc(F)cc2)n1)c1cccc(F)c1 (configuration not stated),-12%,i
CC(C)(C)n1ncc2c(=O)n(CC(=O)NCc3ccco3)cnc21,?,-24%
CC(C)(C)NC(=O)C(c1cccs1)N(Cc1cccs1)C(=O)c1ccc(CN2CCOCC2)o1 (configuration not stated),-10%,i
CC(C)(C)OC(=O)C[C@@H]1C/C=C\C[C@H](CC(=O)N(CCO)Cc2ccccc2)C(=O)N2CCC[C@H]2COC1=O,-12%,-10%

# Bioassay records from PubChem.
